Screens as filed in PubChem BioAssay.
TRPML1 agonist: agonists of human TRPML1 channel | Q9GZU1 | TRPML1-expressing cells, Ca2+ dye fluorescence, FDSS; host cell line not named in the record; reference of the full effect not given here | activation, % (concentration not given with the values) | actives 0.12% (n = 410,000) | AID 624414; in the data active = activation above about 50%; inconclusive = about 30% to 50%; inactive = below about 30%; note: 0% is about no effect; the text of the record puts the active cut at 80%
Target sequence (Q9GZU1 whole entry, looked up): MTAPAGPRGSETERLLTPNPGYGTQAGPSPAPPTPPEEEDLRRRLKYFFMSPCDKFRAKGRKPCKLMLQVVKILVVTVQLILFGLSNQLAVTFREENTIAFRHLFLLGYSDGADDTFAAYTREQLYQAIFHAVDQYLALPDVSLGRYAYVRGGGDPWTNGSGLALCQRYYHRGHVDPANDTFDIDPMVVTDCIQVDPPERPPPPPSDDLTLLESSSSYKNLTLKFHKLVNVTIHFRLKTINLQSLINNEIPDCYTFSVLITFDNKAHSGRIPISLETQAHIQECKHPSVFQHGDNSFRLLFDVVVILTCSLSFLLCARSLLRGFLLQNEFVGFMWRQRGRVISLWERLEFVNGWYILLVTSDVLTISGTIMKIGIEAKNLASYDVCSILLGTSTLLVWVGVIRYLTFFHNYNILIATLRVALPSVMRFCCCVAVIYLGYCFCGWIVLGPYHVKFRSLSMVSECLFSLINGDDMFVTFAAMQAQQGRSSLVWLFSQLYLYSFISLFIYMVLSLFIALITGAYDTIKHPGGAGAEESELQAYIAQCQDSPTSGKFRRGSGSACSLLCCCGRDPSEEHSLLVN
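Kinetic FDSS Ca2+ read in Tet-induced TRPML1-DL cells (ABD Ca8 dye plus quencher, 45-90 min RT loading): baseline, then compound, then 110 s agonist window; EC80 agonist 54-4 at 4uM final added afterwards for a 110 s antagonist window.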
TRPML1 inh: inhibitors of human TRPML1 channel; Q9GZU1; TRPML1-inducible cells, Ca2+ dye fluorescence, FDSS; stronger effect = lower value; inhibition of EC80 agonist-evoked calcium signal; activity change, negative = inhibition, % (test concentration not listed); actives 0.02% (n = 390,000); AID 624415; in the data active means activity change below about -50%; inconclusive means about -30% to -50%; inactive means above about -30%;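 note: stimulus is agonist 54-4 at its EC80 concentration; % is set by controls: 0 for no effect and ±100 for the full control effect; compound concentration not given in the record; the text of the record puts the active cut at -80%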
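TRPML1-DL cells, Tet-induced overnight (~16 h, 37 °C) at 1,500 cells/well, were loaded with Ca8 no-wash dye plus quencher for 45-90 min at room temperature. Compounds were pinned during FDSS kinetic reading; agonist 54-4 at EC80 (4 uM final) then added.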
ClpP mod: qHTS Assay for Activators of ClpP | Potency, µM (titrated, usually from 57.5 µM), inactives show at the top dose activity change, negative = active | purified B. subtilis ClpP, FRET peptide cleavage, 20 min | ATP-dependent Clp protease proteolytic subunit (Bacillus subtilis (strain 168)), P80244 | actives 1.9% (n = 340,000); active = well fitted falling curve with a large enough effect; inconclusive = small, poorly fitted or top-dose-only effect; inactive = no such curve, though single readings can be large or run the other way; note: potency is the fitted concentration of half-maximal effect; the source files actives as falling curves though it sought activators and does not explain the sign; nearly all actives have a fitted effect of over 65% in size; many hits overshoot -100%
Target sequence (P80244 whole entry, looked up): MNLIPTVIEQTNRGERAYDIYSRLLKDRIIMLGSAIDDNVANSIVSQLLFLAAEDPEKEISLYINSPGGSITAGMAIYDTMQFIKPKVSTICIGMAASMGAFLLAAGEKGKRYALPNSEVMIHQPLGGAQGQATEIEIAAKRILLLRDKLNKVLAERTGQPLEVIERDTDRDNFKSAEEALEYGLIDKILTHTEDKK
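ClpP 10 microg/mL final, pH 8 Tris/KCl buffer with BSA, glycerol, Tween-20; compound pinned in; FRET-FV substrate; RT 20 min; Ex320/Em430; ΔFRET vs ADEP 5.8 microM, DMSO, no enzyme.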
Menin-MLL FL inh: menin-MLL binding inhibition, fluorescein peptide; Fluorescence polarization, fluorescein-MLL peptide displacement from menin; FP activity change, % at 61.4 µM; 290,000 tested, under 10 active; inconclusive = falling polarisation curve, or a change in total fluorescence; inactive = total fluorescence flat and polarisation flat or rising; no compound was filed as active; the % refers to the polarisation; negative = inhibition;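 note: % of control where 0% means no effect; inhibitors lower the polarisation; unlabelled MLL peptide was the positive control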
gsp ag: gsp mutant agonism; gsp mutant cells, cAMP HTRF, 30 min; control for the full effect not named in the record; Potency, µM (series often up to 76.9 µM), inactives show at the highest dose activation (cAMP increase), actives largely listed as activators; actives 0.13% (n = 340,000); AID 624287; active = well fitted activation curve with a large enough effect; inconclusive = small, poorly fitted or top-dose-only effect, or another doubt; inactive = no such curve, though single readings can be large or run the other way; cell line not stated here;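 note: phosphodiesterase inhibitor Ro 20-1724 added with compounds to block cAMP breakdown; potency is the fitted concentration of half-maximal effect; nearly all actives have a fitted effect of over 60% in size; about a fifth of the inactives were tested at one dose only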
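Cells stably selected in G418 were plated at 2000/well, grown 16-24 hr, then given compounds in DMSO with the PDE inhibitor […] (300 uM solution added) for 30 min at 37C; cAMP was read by HTRF.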
gsp antag: antagonizes gsp, the McCune-Albright syndrome mutation. gsp-mutant cells, cAMP HTRF, 30 min; control for the full effect not named in the record. Potency, µM (top dose mostly 76.9 µM), for inactives: top-dose activity change, negative = inhibition, usual class: inhibitors. actives 0.4% (n = 340,000). AID 624288; active = falling curve of any shape with a large fitted effect; inconclusive = falling curve, mostly with a smaller effect; inactive = flat or rising curve; cell line not stated here;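 note: intracellular cAMP measured with PDE inhibitor Ro 20-1724 present during compound exposure; potency is the fitted concentration of half-maximal effect; % is set by controls: 0 for no effect and ±100 for the full control effect; nearly all actives have a fitted effect of over 65% in size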
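HTRF cAMP measurement after 30 min RT detection following 30 min, 37C compound treatment alongside […] (added as 300 uM solution) in G418-selected cells seeded at 2000/well and grown 16–24 h.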
An asterisk follows results filed as active; ? = inconclusive; . = no result given; [ ] = dose if it differs, or a comment.

Each structure is followed by: TRPML1 agonist	TRPML1 inh	ClpP mod	Menin-MLL FL inh	gsp ag	gsp antag
(1) Nc1c(C(=O)C2CC2)sc2nc3c(cc12)CCC3
    -0.2	11	-12%	-3.6	?	17%
(2) COc1ccc(CNC(=O)c2ccccc2C(=O)O)cc1
    0.7	-26	1.2%	-6.4	-26%	4%
(3) O=C(NCc1ccccc1Cl)C(=O)NCC(c1ccco1)S(=O)(=O)c1cccs1 (configuration not stated)
    -0.1	19	1.5%	.	.	.
(4) COc1ccc(NC(=O)c2cc(-c3ccco3)nc3ccccc23)cc1
    -0.4	10	0.2%	.	3%[15.4 µM]	8%
(5) Cc1ccc(NC(=O)c2c(C)cc(C)nc2SCC(=O)Nc2ccc(Br)cc2)cc1
    1.8	7	-1.9%	.	.	.
(6) COc1ccc(NC(=O)Cc2ccc(C)cc2)cc1S(=O)(=O)N1CCCCC1
    -1.3	-4	0.5%	.	13%	-11%
(7) COc1ccc(C(=O)OCC2CC(c3ccccc3)N(C)O2)cc1 (configuration not stated)
    -0.6	-1	0.1%	2.2	-27%	-26%
(8) CCOC(=O)C1=C(C)N=c2sc(=Cc3ccc(OCC(=O)O)cc3)c(=O)n2C1c1ccc(Cl)cc1 (configuration not stated)
    1.4	-20	1.1%	.	.	.
(9) COc1cccc(NC(=O)/C(C#N)=C\c2cn(Cc3ccc(Cl)cc3)c3ccccc23)c1
    1.3	0	-0.7%	.	.	.
(10) CCOC(=O)C(C)N1C(=O)S/C(=C/c2ccc3c(c2)n(C)c(=O)n3C)C1=O (configuration not stated)
    0.9	13	-2.8%	2.4	-26%	0%
(11) O=C(NCCc1ccccc1)C1COc2ccccc2C1 (configuration not stated)
    0.9	-14	-23%	.	.	.
(12) Cc1ccc(OCC(=O)NC2CC(C)(C)NC(C)(C)C2)cc1C
    -0.3	-10	.	-1.2	-36%[inhibitor]	2%
(13) Cc1[nH]c(=O)[nH]c(=O)c1S(=O)(=O)Nc1ccc(F)cc1Cl
    -0.6	31	-1.4%	-1.9	6%[15.4 µM]	5%
(14) CCCCCCNCc1c(F)cccc1Cl
    0.6	40	-5.1%	6.2	-24%	0%
(15) Nc1ccnc(Oc2ccc(F)cc2)c1
    -0.1	11	0.1%	-0.4	4%[15.4 µM]	11%
(16) CCOC(=O)c1cc(C(=O)NN)c(=O)[nH]c1C
    -0.9	-5	.	0.4	-5%[15.4 µM]	-1%
(17) Cc1ccc(C)c(NC(=O)c2cc(S(=O)(=O)N3CCc4ccccc4C3)ccc2F)c1
    1.0	-10	-2.4%	.	.	.
(18) COc1cc(NC(=O)Nc2cccc(Cl)c2)c(OC)cc1NC(=O)CN1CCCCC1
    1.0	3	-1.0%	-0.1	17%	-8%
(19) CCCN(CC1CC1)C(=O)COC(=O)c1ccc(C)cc1O
    0.8	-3	-2.6%	.	2%[15.4 µM]	0%
(20) Cc1nc(-c2ccc(NC(=O)c3ccc(Br)o3)cc2)cs1
    0.1	16	-2.8%	5.8	12%[15.4 µM]	-18%
(21) Cc1cc(C)c(NC(=O)COc2nc3ccccc3nc2C)c(C)c1
    0.8	7	-12%	2.3	-8%[15.4 µM]	-1%
(22) COc1ccc(CN2CCN(S(=O)(=O)c3ccc(F)cc3)CC2)c(OC)c1OC
    -0.6	5	1.4%	0.2	20%	-4%
(23) Cc1ccc(NC(=O)CCS(=O)(=O)c2ccc3c(c2)NC(=O)C(C)S3)cc1Cl (configuration not stated)
    -0.2	-10	0.2%	-0.2	2%	-15%
(24) CN(C)S(=O)(=O)Oc1ccc(C(=O)Nc2cccc(C(F)(F)F)c2)cc1
    1.3	5	-0.2%	2.7	-16%	?
(25) O=C(NNC(=O)c1cccc(O)c1)Nc1ccc([N+](=O)[O-])cc1
    -0.3	-7	.	0.2	12%	2%
(26) Cc1ccc(Cl)c(NC(=O)CN2CCNC(=O)C2)c1Cl
    -0.4	-17	-2.1%	2.2	20%[15.4 µM]	1%
(27) Cc1cccc(NC(=O)CSc2nnc(N)s2)c1
    0.9	-4	0.0%	.	.	.
(28) COc1ccc(NC(=O)CS(=O)(=O)c2ccc(C)cc2)c(OC)c1
    0.3	4	.	2.4	-49%[inhibitor]	6%
(29) CC(=O)c1cccc(NS(=O)(=O)c2cc3c(cc2C)n(C)c(=O)c(=O)n3C)c1
    4.4	19	-1.1%	.	.	.
(30) CC(C)c1nccn1S(=O)(=O)c1cc([N+](=O)[O-])ccc1Cl
    0.0	-12	-13%	1.0	-7%	6%
(31) CCOc1ccc(NC(=O)CN2C(=O)COc3ccc(S(=O)(=O)Nc4ccccc4)cc32)cc1
    -0.1	-2	0.6%	.	.	.
(32) CS(=O)(=O)N1CCc2cc(C(=O)N3CCOCC3)ccc21
    0.5	-12	-0.1%	2.6	-10%	9%
(33) CCOc1ccc(C(=O)/C=C/Nc2ccc(S(=O)(=O)Nc3cc(C)nc(C)n3)cc2)cc1
    -0.4	1	.	0.0	-2%	-12%
(34) COc1cccc(C(=O)Nc2nc(-c3ccc(S(=O)(=O)N4CCOCC4)cc3)cs2)c1
    0.2	-1	?	4.2	3%	-13%
(35) COc1cccc(CNC(=O)C2CCN(C(=O)c3cnn(-c4ccccc4)c3-n3cccc3)CC2)c1
    -0.6	3	-1.9%	.	.	.
(36) CC(C)c1nn2c(=O)cc(COC(=O)c3cccc(NC(=O)c4ccccc4F)c3)nc2s1
    2.7	-13	-4.8%	.	.	.
(37) Cc1ccc(-c2noc(CCC(=O)N3CCN(c4cc(C)ccc4C)CC3)n2)cc1
    -0.6	32	-0.7%	.	.	-13%
(38) NNC(=O)CSCc1ccc(Cl)cc1Cl
    2.7	5	.	7.4	9%[15.4 µM]	-6%
(39) Cc1ccc(SCC(=O)c2c(C)nc3ccccn23)cc1
    2.7	11	.	1.0	11%	-21%
(40) COC(=O)[C@H]1Cc2cnoc2C[C@]1(C)C(=O)O
    1.9	24	-0.6%	-1.1	18%	7%
(41) O=C(CSc1ccc(-c2ccco2)nn1)Nc1cccc(F)c1
    -0.6	-7	-9.0%	.	5%[15.4 µM]	-8%
(42) C[C@H](CO)N1C[C@H](C)[C@@H](CN(C)C(=O)Nc2ccc(C(C)(C)C)cc2)OCc2cnnn2CCCC1=O
    1.0	-11	-1.3%	.	?	.
(43) O=C(NCc1ccccc1F)C1CCCN1C(=O)NCc1ccccc1 (configuration not stated)
    -0.4	-2	0.7%	-1.2	0%	9%
(44) CCOc1ccc(NC(=O)CC2C(=O)N(c3ccccc3)C(=O)N2Cc2cccc(OC)c2)cc1 (configuration not stated)
    -0.5	-3	1.3%	.	.	.
(45) O=S(=O)(c1ccc(F)cc1)N1CC2CCCN2c2ccc(C(F)(F)F)cc21 (configuration not stated)
    19	-12	-0.6%	4.1	-4%	?
(46) CCOc1ccc(N2CC(C(=O)NCCc3ccc(OC)c(OC)c3)CC2=O)cc1 (configuration not stated)
    0.9	-1	0.4%	-2.1	21%	2%
(47) N#C/C(=C(/O)CN1CCOCC1)c1nc2ccccc2s1
    0.0	-4	?	-1.4	-26%	-1%
(48) COc1ccccc1NS(=O)(=O)c1ccc2c(c1)N(C(C)=O)CC(C)S2 (configuration not stated)
    0.6	-7	-0.1%	7.5	9%	-8%
(49) CC(=O)c1ccc(NC(=O)Cc2ccsc2)cc1
    0.3	-15	.	-3.4	-3%	7%
(50) COc1cccc(-c2noc(CCCC(=O)NCc3ccco3)n2)c1
    -1.0	-8	-1.0%	.	.	.
(51) CCOc1ccc(/C=N/NC(=O)NC23CC4CC(CC(C4)C2)C3)cc1O
    0.5	9	-2.1%	2.7	?	9%
(52) O=C(CN(Cc1ccccc1)S(=O)(=O)c1ccc(F)cc1)NCc1ccncc1
    -0.6	-8	.	-1.8	-30%	-8%
(53) Cc1cc(NC(=O)c2c(Br)cnn2C)no1
    -0.8	-3	-0.2%	0.0	?	11%
(54) Cc1nc(/C=C/c2ccccc2)[nH]c(=O)c1-c1ccccc1
    -0.2	11	-2.4%	2.8	12%[15.4 µM]	20%
(55) N#CCCNS(=O)(=O)c1ccc(C(=O)OCCCOC(=O)c2ccc(S(=O)(=O)NCCC#N)cc2)cc1
    -0.3	-1	2.2%	.	?	-5%
(56) CC(=O)NS(=O)(=O)c1ccc(NC(=O)c2cc(-c3ccc(C)c(C)c3)nc3ccccc23)cc1
    0.4	15	1.6%	25	18%	3%
(57) CNC(=S)NNC(=O)CNc1ccc(C)c(Cl)c1
    3.3	-11	0.6%	-1.6	-46%[inhibitor]	-5%
(58) COc1cc(OC)cc(C(=O)OCC(=O)NC(c2ccccc2)c2ccccc2)c1
    3.4	5	-21%	.	-6%	5%
(59) CCC(C)NC(=O)c1ccccc1NC(=O)c1ccc(CSc2ccccc2)cc1 (configuration not stated)
    8.2	28	?	2.2	?	-2%
(60) CCOC(=O)C1=C(COC(=O)[C@@H](NC(=O)c2cccc(C)c2)C(C)C)NC(=O)NC1C (some centres not stated)
    0.9	0	0.2%	.	-1%[15.4 µM]	-1%

(cont.)
Each structure is followed by: TRPML1 agonist	TRPML1 inh	ClpP mod	Menin-MLL FL inh	gsp ag	gsp antag
(61) CS(=O)(=O)c1ccccc1-c1nnc(NC(=O)c2ccc3c(c2)OCCO3)o1
    -0.6	-10	-3.8%	.	.	.
(62) CCOc1cc(-c2c(C#N)c(N)nc3c2CCCC3)ccc1O
    0.1	-16	12%	4.0	0%	3%
(63) C=C(C)CSc1nc2sc3c(c2c(=O)n1-c1ccccc1)CC(C(C)C)OC3 (configuration not stated)
    -0.9	-10	-1.0%	.	.	.
(64) CC(C)CCC(O)(c1ccccc1)C(CN1CCOCC1)c1ccccc1 (configuration not stated)
    1.1	-8	1.7%	-0.4	-4%[15.4 µM]	-5%
(65) COc1cccc(CN2CC(C(=O)NCCc3nccs3)CCC2=O)c1 (configuration not stated)
    0.3	-5	-3.3%	.	7%	.
(66) Cc1nnc(SCc2ccccc2F)n1NCc1cccs1
    -0.1	0	0.8%	3.2	-3%	1%
(67) CC(=O)N1CCCc2cc(S(=O)(=O)N3CCCC(C)C3)ccc21 (configuration not stated)
    -0.3	5	.	5.1	-6%	11%
(68) O=C(CC(c1ccccc1)(c1ccccc1)c1ccccc1)N[C@@H](Cc1ccccc1)C(=O)O
    -0.8	9	1.6%	-4.7	.	-10%
(69) COc1cccc(-n2c(SCC(N)=O)nc3ccccc3c2=O)c1
    0.1	-16	-3.0%	?	22%	2%
(70) CN1CCN(C(=S)NC(=O)/C=C/c2cccs2)CC1
    0.9	2	.	-8.3	1%[15.4 µM]	1%
(71) CC(C)(C)c1ccc(C(=O)OCC(=O)N2CCC(c3ccccc3)=N2)cc1
    1.3	7	?	.	24%	0%
(72) COc1cc(Cl)c(NC(=O)C(NS(=O)(=O)c2cccs2)C(C)C)c(OC)c1 (configuration not stated)
    -0.6	5	-0.9%	.	.	.
